Screens from PubChem BioAssay.
D2 agonist: agonists of human D2 dopamine receptor (beta-arrestin); DiscoveRx PathHunter D2 beta-arrestin, luminescence, 90 min; 100% = 57 uM dopamine signal; actives 0.084% (n = 360,000); activation, % (no concentration beside the values); P14416; AID 624465; in the data active = activation above about 40%; inconclusive = about 15% to 40%; inactive = below about 15%; note: compound concentration not given in the record; the text of the record calls up to 30% inactive
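DiscoveRx PathHunter D2 beta-arrestin cells (2,100/well) attached overnight, then compound-stimulated 90 min at 37 C in HBSS/10 mM HEPES/0.1% Tween-20 buffer; beta-galactosidase complementation read by luminescence after 1 h at ambient temperature. Dopamine 57 uM final (EC100) as control.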
PINK1 expr mod: PINK1 expression modulation | PINK1 immunofluorescence, high-content cytometry, 24 h | Potency, µM (doses to about 76.6 µM), inactives show at the highest dose activation (PINK1 increase), usual class: activators | actives 0.2% (n = 410,000) | AID 624263; active = well fitted activation curve with a large enough effect; inconclusive = small, poorly fitted or top-dose-only effect; inactive = flat fitted curve, though single readings scatter; cell line not stated here;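 note: potency is the fitted concentration of half-maximal effect; % of control where 0% means no effect; nearly all actives have a fitted effect of over 65% in size; a mitochondrial uncoupler was the plate control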
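Compound titrations (5 concentrations, 24 h) on a stable cell line; DMSO and CCCP controls. Endpoint: fixed-cell PINK1 immunofluorescence with mitochondrial, cell and nuclear markers, scanned by microplate cytometer.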
CtBP-E1A blk: CtBP/E1A binding inhibition. AlphaScreen GST-E1A/His-CtBP binding, 1536-well; stronger effect = lower value; control for the full effect not named in the record. activity change, % (no concentration beside the values). actives 0.49% (n = 340,000). AID 651724; in the data active means activity change below about -65%; inconclusive means about -30% to -65%; inactive means above about -30%; note: % is set by controls: 0 for no effect and ±100 for the full control effect; compound concentration not given in the record
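Homogeneous bead-based format: GST-tagged E1A captured on glutathione donor beads, His-tagged CtBP on nickel acceptor beads; compounds precede bead addition by 2 h at 37 °C.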
Sfp PPTase inh: Sfp phosphopantetheinyl transferase inhibition; Q9F4F7; Biochemical Sfp PPTase activity, qHTS; Potency, µM, without a hit: max response, negative = inhibition, actives largely listed as inhibitors; actives 3.5% (n = 310,000); active = well fitted inhibition curve with a large enough effect; inconclusive = small, poorly fitted or top-dose-only effect, or another doubt; inactive = no such curve, though single readings can be large or run the other way;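 note: the enzyme is Sfp with the accession as filed and its product quenches rhodamine fluorescence; potency is the fitted concentration of half-maximal effect; 0% = enzyme reaction without inhibitor and -100% = no enzyme wells; top concentration of the series not given in the record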
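Fluorescence-quenching assay: 15 nM Sfp-PPTase preincubated 15 min at room temperature with compound, then 5 uM rhodamine-CoA and 12.5 uM BHQ-2-labelled YbbR peptide added. Fluorescence (ex 525/em 598 nm) read at start and after 30 min; difference gives rate.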
TRPV1 potentiator: potentiators of human vanilloid receptor 1 (TRPV1); Q8NER1; TRPV1-expressing cells, Fluo-8 calcium influx, capsaicin EC20 potentiation; host cell line not named in the record; control for the full effect not named in the record; potentiation, % at 8.33 µM; actives 0.02% (n = 320,000); AID 540277; active means potentiation above 80%; inconclusive means 30% to 80%; inactive means below 30%; note: 0% is about no effect
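Cells expressing TRPV1 were dye-loaded with Fluo-8 and read kinetically: 10 s baseline, 3 min after compound (agonist portion), then 2 min after EC20 capsaicin (allosteric enhancer portion). Calcium-bound dye fluorescence at 480/520 nm.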
Six1-Eya2 blk: blocks human Six1 binding to Eya2; Q15475+O00167; AlphaScreen GST-Six1/His-Eya2 binding, biochemical; stronger effect = lower value; control for the full effect not named in the record; activity change, % (test concentration not listed); actives 0.56% (n = 360,000); in the data active = activity change below about -65%; inconclusive = about -30% to -65%; inactive = above about -30%; note: % is set by controls: 0 for no effect and ±100 for the full control effect; compound concentration not given in the record
Target sequence (O00167 whole entry, looked up): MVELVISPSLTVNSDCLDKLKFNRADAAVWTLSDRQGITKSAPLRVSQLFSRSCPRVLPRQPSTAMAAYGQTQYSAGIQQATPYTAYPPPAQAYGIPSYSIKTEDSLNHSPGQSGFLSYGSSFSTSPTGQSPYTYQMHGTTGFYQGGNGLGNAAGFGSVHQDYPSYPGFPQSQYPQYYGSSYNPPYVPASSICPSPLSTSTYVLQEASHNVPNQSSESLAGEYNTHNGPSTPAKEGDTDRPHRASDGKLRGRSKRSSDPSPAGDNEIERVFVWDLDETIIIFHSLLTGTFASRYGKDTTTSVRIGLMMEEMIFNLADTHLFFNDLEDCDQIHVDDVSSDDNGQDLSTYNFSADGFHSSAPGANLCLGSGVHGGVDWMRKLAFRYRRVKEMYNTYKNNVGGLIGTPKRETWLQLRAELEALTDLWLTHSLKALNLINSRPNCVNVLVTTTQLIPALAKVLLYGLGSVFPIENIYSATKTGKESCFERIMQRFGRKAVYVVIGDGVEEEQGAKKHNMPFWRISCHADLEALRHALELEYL
Target sequence (Q15475 whole entry, looked up): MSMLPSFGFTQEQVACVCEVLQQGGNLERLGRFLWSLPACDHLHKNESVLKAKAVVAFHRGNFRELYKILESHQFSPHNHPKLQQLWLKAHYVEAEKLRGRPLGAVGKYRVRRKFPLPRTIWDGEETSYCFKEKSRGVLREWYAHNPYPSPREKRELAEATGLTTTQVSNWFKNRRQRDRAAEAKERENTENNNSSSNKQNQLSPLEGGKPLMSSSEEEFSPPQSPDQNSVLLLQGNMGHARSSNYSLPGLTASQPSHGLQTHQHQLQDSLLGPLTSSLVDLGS
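Homogeneous AlphaScreen proximity assay pairing GST-Six1 with His-tagged Eya2 (added as 5X mix: 250 nM and 500 nM) in 50 mM Tris pH 8.0, 300 mM NaCl, 1 mM TCEP. Glutathione donor and nickel acceptor beads; 1 h, 37 °C, dark.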
D2 potentiator: positive allosteric modulators of human D2 dopamine receptor; P14416; DiscoveRx D2 beta-arrestin cells, luminescence, 90 min; 100% = 57 uM dopamine signal; potentiation, % (concentration not given with the values); actives 0.23% (n = 360,000); AID 624464; active = potentiation of 50% or more; inconclusive = 30% to 50%; inactive = 30% or less;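 note: compound concentration not given in the record; tested on top of an EC20 dose of dopamine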
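PathHunter beta-arrestin assay in DiscoveRx D2 cells. Compounds were added with an EC20 of dopamine (50 nM final) for 90 min at 37 deg C. Luminescence was read 1 h after detection reagent, with 57 uM dopamine as the EC100 control.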
* marks the source's active call; other numbers are inactive results; ? = inconclusive; / = not tested or not shown; & = joins results of further samples; [ ] = remark or other dose.

nr	smiles	D2 agonist	PINK1 expr mod	CtBP-E1A blk	Sfp PPTase inh
1	CCc1ccccc1N1C(=O)C2C3CC(=O)C(c4ccccc43)C2C1=O (centres undefined)	-3.8	0.5%	-10	23%
2	CC1(C)C(C(=O)O)N2C(=O)C(NC(=O)Cc3ccccc3)C2S1=O (centres undefined)	-4.6	-1.5%	?	-11%
3	C(=Nc1ccc(N2CCOCC2)cc1)c1c[nH]c2ccccc12	11	-1.9%	5	-1%
4	Cn1c2ccc(F)cc2c2ncn(CCCN(CCO)CCO)c(=O)c21	-2.1	5.1%[38.3 µM]	-15	-18%
5	CCN(CC)c1ccc(/C=c2\sc3nnc(-c4ccccc4Cl)n3c2=O)cc1	-3.7	4.2%	5	-1%
6	CCOC(=O)C1CCCN(S(=O)(=O)c2ccc(C)cc2)C1 (centres undefined)	-1.0	0.5%	1	-1%
7	COc1ccc2sc(-c3ccccc3OC)c(-c3ccc(O)cc3)c2c1	-0.1	4.3%	0	/
8	O=C1c2ccccc2C(=O)N1CCc1nc2ccccc2c(=O)n1Cc1ccco1	-3.4	-0.8%	-11	50µM*
9	COc1ccc(C(=O)C[n+]2ccccc2/C=N/O)cc1	-1.4	0.3%	-2	-3%
10	Cc1ccc(Cn2nc(C)c(NC(=O)C3CC3)c2C)cc1	-1.3	-1.1%	6	3%

nr	TRPV1 potentiator	Six1-Eya2 blk	D2 potentiator
1	-4	-2	-2
2	-6	-3	-1
3	12	-15	5
4	?	-24	-6
5	-1	0	-12
6	-9	11	0
7	-1	-9	-7
8	8	4	4
9	-6	3	-8
10	4	-1	-8

More compounds:
nr	smiles	D2 agonist	PINK1 expr mod	CtBP-E1A blk	Sfp PPTase inh
11	COC(=O)c1sc(N)c(C(=O)OC)c1COC(=O)[C@@H](NS(=O)(=O)c1cccc(Cl)c1)C(C)C	-3.4	-0.4%	-2	-3%
12	N#Cc1ccc(C=NN2CCCCCC2)cc1	-1.3	1.9%	-30	/
13	COc1cccc(C(=O)NCCCNC(=O)c2ccco2)c1	-3.0	-0.3%	3	4%
14	Cc1[nH]n(-c2nc(-c3cccc([N+](=O)[O-])c3)cs2)c(=O)c1C	-6.5	0.3%	0	12%
15	COc1ccc(N(CC(=O)NN=C2CCCCCCC2)S(=O)(=O)c2ccccc2)cc1Cl	-1.9	-0.7%	-5	-6%
16	CCOc1ccc2[nH]c(=O)c(CN(CCN3CCCC3)C(=S)Nc3ccccc3OC)cc2c1	1.2	0.4%	-1	18%
17	CC(=O)N(C)c1cccc(-c2ccc3nnc(C)n3n2)c1	0.2	0.0%	4	6%
18	Cn1c(=O)oc2cc(S(=O)(=O)Nc3ccc(Cl)cc3F)ccc21	1.4	3.1%	-14	14%
19	O=C1CC(SC(=S)C2CCCC2=O)C(=O)N1 (centres undefined)	-8.2	-1.5%	-15	/
20	O=C(COC(=O)c1ccc([N+](=O)[O-])o1)Nc1ccc2c(c1)OC(F)(F)O2	5.1	0.6%	0	/

nr	TRPV1 potentiator	Six1-Eya2 blk	D2 potentiator
11	-13	-5	-4
12	/	?	-28
13	-18	4	-3
14	14	-11	-2
15	6	3	-4
16	1	-9	-6
17	5	0	1
18	?	-9	-3
19	/	-28	-34
20	/	-6	9

Next part
nr	smiles	D2 agonist	PINK1 expr mod	CtBP-E1A blk	Sfp PPTase inh
21	COc1ccccc1N1CCN(C2CCCN(C(=O)c3cscn3)C2)CC1 (centres undefined)	0.3	-0.9%	7	8%
22	CCCNC(=O)N1CCN(Cc2ccco2)CC1	-0.3	-1.2%	0	7%
23	Cn1c(CN2CCOCC2)nnc1SCc1ccc(C#N)cc1	-2.4	1.5%	8	11%
24	NC1=NC(=O)/C(=C/c2ccc(OCC(=O)O)cc2)S1	1.3	-0.1%	5	14%
25	CC(=O)C1=C(c2ccccc2)NC(=S)NC1c1ccc(O)c(O)c1 (centres undefined)	8.4	-0.6%	-17	-20%
26	Cc1ccc(Oc2ccc(OCC(=O)NC(CC(C)C)C(=O)O)cc2)cc1 (centres undefined)	-0.6	3.5%	7	3%
27	COc1ccc(-n2c(C)cc(=O)c3c2CC(C)(C)CC3=O)cc1	-0.6	1.8%	6	31%[activator]
28	Cc1ccc(-n2nnnc2SCC(=O)Nc2cccc(NC(=O)c3ccco3)c2)cc1C	-1.1	-0.8%	-6	-17%
29	Cc1cc(CCCCCCCCc2cc(C)cc(=O)o2)oc(=O)c1	0.7	6.1%	10	1%
30	Cc1ccc(NC(=S)N(CCCN2CCCC(C)C2)Cc2ccco2)cc1C (centres undefined)	-5.2	5.1%	-9	5%

nr	TRPV1 potentiator	Six1-Eya2 blk	D2 potentiator
21	-3	1	-50
22	8	2	-8
23	4	3	-9
24	-10	3	3
25	-1	9	3
26	26	1	3
27	17	5	-11
28	17	-8	-18
29	-20	6	-11
30	0	-7	-35

(listing goes on)
nr	smiles	D2 agonist	PINK1 expr mod	CtBP-E1A blk	Sfp PPTase inh
31	CCOc1ccc(-c2nnn(CC(=O)NCc3ccccc3)n2)cc1	1.4	5.0%	-2	-4%
32	O=C(Nc1nc(-c2cc3ccccc3o2)cs1)c1ccc(S(=O)(=O)N2CCCC2)cc1	-3.2	-1.5%	-15	16%
33	CCCN1CCN(C(=O)c2ccc(Sc3ccc(C)cc3)c(NC(C)=O)c2)CC1	-1.3	?	0	-6%
34	CC1CCCN(C(=O)NC(=O)c2ccc(Cl)cc2)C1 (centres undefined)	-2.2	-0.8%	4	10%
35	COC(=O)CSc1ccc2nnc(CCNS(=O)(=O)c3ccc(C)cc3)n2n1	3.6	-1.2%&0.3%	/	7%
36	Cc1sc2ncnc(SCC(=O)NNC(=O)c3ccco3)c2c1C	-4.8	5.7%	/	-17%
37	CC(C)N(Cc1ccccc1)C(=S)Nc1ccc(F)cc1	3.6	1.8%	2	0%
38	COC(=O)Cn1c(CN(Cc2ccccc2)Cc2ccccc2)nc2c1c(=O)[nH]c(=O)n2C	-2.2	-21%[38.3 µM]	2	3%
39	O=C(Nc1ccc(S(=O)(=O)Nc2ccccn2)cc1)c1cccc(Cl)c1	-1.3	0.3%	3	-3%
40	COc1cc(CC(=O)OCC(=O)c2ccc[nH]2)cc(OC)c1OC	10	6.4%	3	/

nr	TRPV1 potentiator	Six1-Eya2 blk	D2 potentiator
31	2	5	-7
32	-2	-2	-1
33	-1	14	-12
34	9	2	-11
35	4	7	71*
36	-12	-4	-2
37	-1	1	1
38	-4	-13	-7
39	-1	-14	-2
40	/	0	-1

One compound at a time, as listed above. Values in the order: D2 agonist	PINK1 expr mod	CtBP-E1A blk	Sfp PPTase inh	TRPV1 potentiator	Six1-Eya2 blk	D2 potentiator
Record of `COc1cc(CC(=O)OCC(=O)c2ccc[nH]2)cc(OC)c1OC` : 10	6.4%	3	/	/	0	-1
Record of `CCOc1ccc(-c2nnn(CC(=O)NCc3ccccc3)n2)cc1` : 1.4	5.0%	-2	-4%	2	5	-7
Record of `Cc1sc2ncnc(SCC(=O)NNC(=O)c3ccco3)c2c1C` : -4.8	5.7%	/	-17%	-12	-4	-2

Other structures follow:
nr	smiles	D2 agonist	PINK1 expr mod	CtBP-E1A blk	Sfp PPTase inh
41	Cc1cc(C)c([C@@H]2C[C@H]3CN(C4CCCC4)C(=O)[C@]34CCCN24)c(-n2cccn2)c1	-1.8	-1.1%	3	2%
42	Cc1ccsc1C1Nc2ccccc2C(=O)N1O (centres undefined)	-3.6	1.7%	1	-17%
43	O=C(COC(=O)C1COc2ccccc2O1)Nc1cccc(F)c1 (centres undefined)	-1.1	-0.6%	11	/
44	Cc1cc(-c2csc(NC(=O)c3ccc(C#N)cc3)n2)c(C)n1Cc1ccco1	-1.1	1.9%	-4	-16%
45	CCN(CC(=O)N1CCC(C(N)=O)CC1)S(=O)(=O)c1cc(Cl)ccc1Cl	-2.4	0.7%	-1	/
46	CC(=O)c1cccc(NC(=O)C2Cc3c(-c4cccc(C(C)=O)c4)ccnc3O2)c1 (centres undefined)	4.1	2.9%	19	/
47	Cn1c(C(=O)N2CCN(C(=O)c3ccco3)CC2)cc2c(=O)n(C)c3ccccc3c21	6.2	2.1%	-16	-19%
48	O=C(OCc1cnc(Cl)s1)c1cccs1	2.2	0.1%	19	8%
49	CCOC(=O)c1sc2nc(CN3CCN(c4cccc(C(F)(F)F)c4)CC3)[nH]c(=O)c2c1C	1.6	0.1%	0	8%
50	O=C(Nc1ccc(S(=O)(=O)N2CCOCC2)cc1)c1cc(-c2cc(Cl)ccc2O)n[nH]1	7.0	?	/	5%

nr	TRPV1 potentiator	Six1-Eya2 blk	D2 potentiator
41	8	2	-5
42	8	-1	-1
43	-10	0	-4
44	1	-1	-6
45	/	5	3
46	/	0	1
47	/	-20	4
48	-11	10	-2
49	-15	-10	-10
50	-7	-8	-4

Further results follow.
nr	smiles	D2 agonist	PINK1 expr mod	CtBP-E1A blk	Sfp PPTase inh
51	Cn1nc(C(=O)N2CCN(c3ccc([N+](=O)[O-])cc3)CC2)c2c1-c1ccccc1S(=O)(=O)C2	-5.7	4.9%	2	3%
52	CCC(=O)Nc1nnc(S(=O)(=O)N(C)c2ccccc2)s1	-0.9	-0.3%	9	10%
53	Cn1c(O)c(C=NCCCCCC(=O)O)c(=O)n(C)c1=O	-6.5	-0.6%	0	/
54	COc1cc(C(C)=O)ccc1COc1ccc(C(=O)OCC(=O)NC(C)(C)C)cc1OC	3.5	-0.4%	-5	3%
55	COc1ccccc1Nc1nc(N)nc(CCl)n1	-1.8	2.8%	-5	1%

nr	TRPV1 potentiator	Six1-Eya2 blk	D2 potentiator
51	28	0	-4
52	1	35	-4
53	/	1	-7
54	0	-2	5
55	8	8	0
